B2AR ag: agonists of human beta-2 adrenergic receptor inducing internalization | P07550 | Am2.2-beta2AR cells, FAP receptor internalization, flow cytometry; reference of the scale not given here | response, % (no concentration beside the values) | 340,000 compounds, 0.43% hits | AID 504454;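 active = response above a set limit, near 3 SD of response in nonfluorescent compounds, cut at about 42% in these data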;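 also: stock transfer was 100 nL into about 11 µL; a reference agonist was the positive control; negative values mostly stem from fluorescent compounds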
E coli growth: inhibitors of Escherichia coli growth. OD600 absorbance (no concentration beside the values). OD600, 23 h; stronger effect = lower value. AID 1053175. 330,000 compounds, 0.21% hits;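 active = OD600 absorbance below the run mean of sample wells minus 3.6 SD, in any replicate, cut at about 0.56 in these data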;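 also: stock transfer was 300 nL into about 60 µL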
LANA-H2B inh: blocks KSHV LANA binding to histone H2A/H2B | cell-free LANA-H2A/H2B peptide, fluorescence polarization | inhibition, % (no concentration beside the values) | 320,000 compounds, 0.6% hits | AID 2629; in the data active = inhibition mostly above about 10%, no sharp cut-off; inactive = mostly below about 6.7%;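 also: stock transfer was 7.5 nL into about 10 µL; 0% = median of vehicle wells and 100% = median of positive control wells; one replicate is shown; the record names a cut of 25% in any replicate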
HNF4A DNA FP: change in binding of human HNF4 alpha to DNA; P41235; HNF4a-FITC DNA binding, fluorescence polarization, 1 h; activity change, % at 10 µM; 360,000 compounds, 0.3% hits; in the data active = activity change above about 30%, passing the limit was not always enough;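 also: controls were the assay level and a saturating level of protein; the project sought stronger binding though the title names inhibitors; some compounds called inactive have numbers as strong as hits; positive values seem to mean higher polarization but the record does not say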
Target sequence (P41235 whole entry, looked up): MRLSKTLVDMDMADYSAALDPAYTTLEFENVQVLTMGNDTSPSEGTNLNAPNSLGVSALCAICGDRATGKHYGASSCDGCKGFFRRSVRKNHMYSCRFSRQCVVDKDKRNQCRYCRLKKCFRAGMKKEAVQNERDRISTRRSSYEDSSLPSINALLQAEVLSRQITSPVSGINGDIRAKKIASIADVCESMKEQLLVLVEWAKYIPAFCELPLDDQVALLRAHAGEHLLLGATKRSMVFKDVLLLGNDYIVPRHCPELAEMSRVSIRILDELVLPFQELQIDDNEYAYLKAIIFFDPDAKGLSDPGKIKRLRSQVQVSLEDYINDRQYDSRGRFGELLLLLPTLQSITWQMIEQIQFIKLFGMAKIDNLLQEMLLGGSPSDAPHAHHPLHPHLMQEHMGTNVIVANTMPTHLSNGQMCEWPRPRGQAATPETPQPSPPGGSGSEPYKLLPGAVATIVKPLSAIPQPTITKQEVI
FGF22 binding: shifts melting point of recombinant human FGF22 | 340,000 compounds, 1.5% hits | calls only at 9.99 µM | recombinant FGF22 thermal shift, SYPRO orange fluorescence; percent of sucrose octasulfate shift, DMSO zero | Q9HCT0 | AID 651658;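 active = melting point raised past a set limit in the mean and every replicate; three in four hits are not shown here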
Target sequence (Q9HCT0 whole entry, looked up): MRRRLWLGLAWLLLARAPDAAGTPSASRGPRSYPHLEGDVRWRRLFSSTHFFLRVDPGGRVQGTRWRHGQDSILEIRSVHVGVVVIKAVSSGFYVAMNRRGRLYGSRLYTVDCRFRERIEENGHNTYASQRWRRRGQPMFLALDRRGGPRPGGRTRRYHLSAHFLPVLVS
ALR H2O2 inh: inhibitors of human sulfhydryl oxidase ALR | 290,000 compounds, 3.8% hits | inhibition, % (test concentration not listed) | purified ALR, DTT oxidation, H2O2 HRP-luminol luminescence | P55789;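 active = mean and each replicate at 75% or more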;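 also: stock transfer was 7.5 nL into about 7.5 µL; 0% = neutral wells and 100% = wells with inactivated enzyme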
Target sequence (P55789 whole entry, looked up): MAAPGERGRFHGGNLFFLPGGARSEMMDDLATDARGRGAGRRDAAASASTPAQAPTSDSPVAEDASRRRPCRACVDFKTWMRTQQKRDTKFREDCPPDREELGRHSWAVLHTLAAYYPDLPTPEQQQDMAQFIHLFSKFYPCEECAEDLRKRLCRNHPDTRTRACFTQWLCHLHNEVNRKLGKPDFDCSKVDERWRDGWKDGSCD
UCH37 DUB inh: human UCH37 deubiquitinating enzyme inhibition | 330,000 compounds, 0.33% hits | inhibition, % (test concentration not listed) | purified proteasome/UCH37, Ub-AMC cleavage fluorescence;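 active = mean of two replicates above 20%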;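 also: 0% = compound-free wells with enzyme and 100% = wells lacking proteasome; stock transfer was 100 nL into about 20 µL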
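Assay system: Proteasome-bound UCH37. Buffer or medium: pH 7.4 Tris-HCl (50 mM) with ovalbumin, ATP-MgCl2, DTT. Incubation: 30 min preincubation with enzyme, 25 min cleavage at room temperature. Measured by: fluorescence, ex 355 nm, em 460 nm. Read-out basis: percent inhibition. Control set: wells without proteasome as full block, compound-free enzyme plus substrate as uninhibited.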
Starred values were filed as active, the others as inactive; i = inactive; nt = not tested or not shown. Only part of the results is shown; the hit share may differ from the screen's.

SMILES	B2AR ag	E coli growth	LANA-H2B inh	HNF4A DNA FP	FGF22 binding	ALR H2O2 inh	UCH37 DUB inh
COc1ccc(CNS(=O)(=O)c2cccc(S(=O)(=O)N3CCOCC3)c2)cc1	9	0.69	-3.4	-1.8	i	-9	0.9
CN(C1CCCCC1)S(=O)(=O)c1cc2c3c(c1)CCN3C(=O)CC2	-1	0.71	-1.0	-0.9	i	1	4.8
COc1ccc(C(C(=O)NC2CCCC2)N(CCN2CCOCC2)C(=O)c2ccc(OC)c(OC)c2)cc1 (stereo unspecified)	-6	0.7	-2.1	-4.1	nt	1	1.9
CN(CC(=O)Nc1ccc(F)cc1)C(=O)COC(=O)c1cc(Br)c(Br)s1	-11	0.7	nt	-0.5	i	nt	0.6
COc1ccccc1NC(=O)C1Cc2ccccc2CN1C(=O)c1ccco1 (stereo unspecified)	0	0.69	3.6	2.5	i	nt	4.2
Cc1cccc(C2c3[nH]c4ccccc4c3CCN2C(=O)c2nn(C)c(=O)c3ccccc23)n1 (stereo unspecified)	6	0.7	2.7	-5.0	i	-9	3.6
Cc1ccc(S(=O)(=O)c2nc(Nc3nccs3)sc2Cl)cc1	7	0.68	0.2	12	nt	61	-0.8
CC#CCCc1nc2ccccc2c(=O)n1N	5	0.68	-1.8	0.5	nt	-5	1.5
COc1ccccc1C1(O)CCN(C(=O)c2cccs2)CC1	1	0.77	-4.4	1.1	nt	-2	-4.3
O=C(Nc1ccc2oc(-c3cccnc3)nc2c1)c1ccc2c(c1)OCCO2	-4	0.69	-1.9	74	nt	0	-11
CCc1ccc2c(CC(=O)Nc3cccc(S(=O)(=O)N4CCOCC4)c3)coc2c1	-1	0.65	-3.5	2.9	i	nt	3.0
O=C(Nc1ccc(Cl)cc1)P(=O)(O)c1ccccc1	-2	0.68	nt	0.6	i	nt	3.3
CCOc1ccc(S(=O)(=O)N2CCN(S(=O)(=O)c3ccc(C)c(C)c3)CC2)cc1	17	0.69	nt	0.9	i	nt	5.1
Cc1noc(NS(=O)(=O)c2ccc(NC(=O)c3cc(F)c(F)c(F)c3F)cc2)c1C	4	0.68	nt	2.3	i	nt	6.0
OC(COC(c1ccccc1)c1ccccc1)CN1CCOCC1 (stereo unspecified)	-1	0.7	6.0	-0.6	i	-3	3.7
O=C(/C=C/c1ccc(Cl)cc1)NCc1cccs1	1	nt	2.0	-2.8	nt	8	nt
CCc1ccc(CN2CCC(Oc3ccc(C(=O)N4CCCC4)cc3)CC2)cc1	82*	0.72	-3.2	-2.8	i	-2	-2.3
CCSC(=N)N	2	0.66	5.1	-1.4	i	-21	1.5
CCOc1c2ccccc2nn1CCOC	-4	0.6	-2.7	4.3	i	-3	1.3
CC1(C)Cc2ccccc2-c2nc(NCCCO)[nH]c(=O)c21	1	0.69	-1.0	1.4	nt	nt	i
CC(=O)N1CCC(N(CCN2CCOCC2)C(=S)Nc2cccc(C)c2C)CC1	1	0.71	0.4	2.5	nt	0	3.8
Cn1c(N)c(NC(=S)NC2CCCCC2)c(=O)n(C)c1=O	-2	0.62	nt	4.4	i	nt	0.2
COc1ccc(/C=C2\SC(=O)N(CCC(=O)N3CCCCC3)C2=O)cc1OC	13	0.64	4.8	-1.1	i	nt	3.2
CCOC(=O)N1CCN(Cc2nc3c(c(=O)[nH]c(=O)n3C)n2CCCc2ccccc2)CC1	-9	0.67	6.0	4.6	i	-3	1.0

Random excerpt: two records from the list, in no set order.
SMILES	B2AR ag	E coli growth	LANA-H2B inh	HNF4A DNA FP	FGF22 binding	ALR H2O2 inh	UCH37 DUB inh
Cn1c(N)c(NC(=S)NC2CCCCC2)c(=O)n(C)c1=O	-2	0.62	nt	4.4	i	nt	0.2
CC(=O)N1CCC(N(CCN2CCOCC2)C(=S)Nc2cccc(C)c2C)CC1	1	0.71	0.4	2.5	nt	0	3.8

(continued)
SMILES	B2AR ag	E coli growth	LANA-H2B inh	HNF4A DNA FP	FGF22 binding	ALR H2O2 inh	UCH37 DUB inh
COc1ccc(C(=O)Nc2c(N)nc(SCC(=O)c3ccccc3)[nH]c2=O)cc1	3	0.72	-16	3.4	i	-24	3.9
COc1ccc2c(COC(=O)CCS(=O)(=O)c3ccc(C)cc3)cc(=O)oc2c1	5	0.69	-8.9	0.4	i	42	-185
O=C(NNC(=O)c1ccc([N+](=O)[O-])cc1)NC1CCCCC1	-2	0.62	0.1	-3.1	i	0	2.3
COC(=O)c1ccc(S(=O)(=O)N2CCCCCC2)n1C	-4	0.63	4.2	1.8	i	nt	-0.8
CC(C)(C)c1ccccc1NC(=O)COC(=O)CN1C(=O)NC2(CCCC2)C1=O	-6	0.65	-1.1	3.8	i	5	0.6
Cc1cc(NS(=O)(=O)c2ccccc2)c([N+](=O)[O-])cc1C	-7	nt	3.9	0.4	nt	-40	nt
Clc1ccc(-n2cnc3c(Cl)ncnc32)cc1Cl	19	0.72	nt	10	i	nt	1.8
CC1CC(C)CN(c2ncc3c(n2)CC(c2ccccc2Cl)CC3=O)C1 (stereo unspecified)	19	nt	1.0	0.3	nt	1	nt
O=C(Nc1cccc(C(F)(F)F)c1)c1cc(S(=O)(=O)N2CCCCC2)ccc1N1CCOCC1	10	0.75	-0.9	0.2	nt	nt	0.8
CCCC(=O)Nc1cc(-c2cn3cccnc3n2)ccc1OC	-11	0.74	-0.5	4.0	nt	-10	-126
Cc1c(C=C(C#N)c2ccc([N+](=O)[O-])cc2)c(=O)n(-c2ccccc2)n1C	6	0.69	nt	-3.0	i	nt	12
O=C(Nc1ccc(Cl)cc1)NC1CCCCC1Cc1ccco1 (stereo unspecified)	1	0.67	-4.6	1.8	nt	5	4.8
O=C(O)c1ccccc1C(=O)OCc1c(-c2ccccc2)ncc2ccccc12	1	0.73	0.3	5.2	i	7	1.8
CCOc1ccccc1-n1c(SCC(N)=O)nnc1-c1ccco1	5	0.64	1.5	-0.1	i	-3	1.7
C=C(C)CSc1nnc(-c2ccc(C)cc2)n1N	0	0.67	1.3	-2.0	nt	-4	4.2
C=CCn1c(SCC(=O)Nc2ccc(OC)cc2)nc2ccccc2c1=O	-5	0.67	-0.5	2.3	i	-5	3.0
CCOC(=O)c1cnc(COc2ccccc2Cl)[nH]c1=O	5	0.66	-0.2	-1.6	i	6	3.3
O=C(CSc1nc(O)cc(=O)n1-c1ccc(Cl)c(Cl)c1)Nc1ccc(Cl)cc1Cl	-2	0.7	1.3	5.5	i	98*	3.9
CCN(C(=O)c1cc2ccccc2oc1=O)c1ccccc1	-13	0.72	-1.6	-9.5	nt	-6	3.9
O=C(N/N=C/c1ccc(O)c([N+](=O)[O-])c1)C(O)(c1ccccc1)c1ccccc1	7	nt	-6.2	1.0	i	-7	nt
CCCCN(C(=O)C1CC(=O)N(c2ccc(OC)cc2OC)C1)c1c(N)n(CC(C)C)c(=O)[nH]c1=O (stereo unspecified)	12	0.69	-2.7	-7.0	i	-3	-3.5
Cc1nc(SCC(=O)N(C)C2CCS(=O)(=O)C2)c2ccccc2n1 (stereo unspecified)	5	0.62	1.8	-2.9	i	-2	8.0
COC(CNC(=O)c1ccc2c(c1)ncn2C1CCCCCC1)OC	-1	0.67	3.0	3.1	i	4	1.0
CCc1nc(NCC2CCCN2CC)c2nnn(Cc3ccccc3F)c2n1 (stereo unspecified)	8	0.71	-1.8	2.1	nt	45	0.4
COCCOC(=O)c1cc(C(=O)c2cc(Cl)ccc2O)coc1=N	7	0.64	-4.2	2.9	i	7	-14
C=CCn1c(O)c(N=NC(=S)Nc2ccc(OC)c(Cl)c2)c2ccccc21	7	0.73	-1.9	-3.9	i	-4	7.3
COC(=O)CCCCC1SCC(NC(=O)c2ccccc2)C1=O (stereo unspecified)	7	0.7	0.9	1.1	i	nt	0.4
O=C1N/C(=N/S(=O)(=O)c2ccccc2)S/C1=C/c1cccnc1	5	0.68	3.2	-5.2	i	38	8.0
CCc1nc(C(N)=O)c2[nH]c(=O)n(-c3ccccc3F)c2n1	0	0.69	3.5	1.0	i	nt	-224
CCOCCCNC(=O)c1cc2c(=O)n3cccc(C)c3nc2n1C	24	0.75	2.0	-2.1	i	-9	-257
COCCCNC(=O)c1cccc2c(=O)c(C)c(-c3ccccc3)oc12	-15	0.71	0.7	0.7	nt	-23	3.3
COc1ccc(CCNC(=O)CCOc2ccc(C)cc2)cc1OC	-7	0.69	-20	2.8	i	-3	8.7
Cc1ccccc1NC(=O)CSc1nc(O)cc(=O)n1C	5	0.7	-0.3	0.7	i	99*	11
CCc1nn(CCCC(=O)N2CCc3ccccc3C2)c(=O)c2cc3occc3n12	-16	0.67	0.4	-0.4	nt	26	2.2
Cc1cc(C)nc(NCCCc2ccccc2)n1	-6	0.67	-0.2	-0.2	i	-1	0.3
COc1ccc2sc(N(CCN(C)C)C(=O)c3cc(Cl)sc3Cl)nc2c1	-8	0.68	-1.0	1.9	i	-18	3.3
Cc1ccc(S(=O)(=O)N2C(=O)[C@@H]3Cc4ccccc4CN3C2=O)cc1	-2	0.68	nt	-2.2	i	nt	0.6
COc1ccc(C(CNC(=O)COc2ccccc2)N2CCCCC2)cc1 (stereo unspecified)	1	0.63	nt	1.9	i	nt	2.7
COc1ccc(CNC(=O)Cc2ccc(-c3ccccc3)cc2)cc1OC	-8	0.68	8.2	2.6	i	-4	3.1
COc1ccc(N=C2SC(C(=O)N3CCN(c4ccccc4)CC3)CC(=O)N2C)cc1 (stereo unspecified)	-1	0.78	2.0	-0.2	i	-7	-0.1
COc1ccc(NC(=O)C(c2cc3c(cc2[N+](=O)[O-])OCO3)N(C)Cc2ccccc2)cc1 (stereo unspecified)	-7	0.71	2.6	-3.1	nt	-21	-11
O=[N+]([O-])c1cnc2ccccn12	3	0.65	-0.4	-2.6	i	-5	6.7
CCOCCCn1c(=S)[nH]c2cc(C(=O)NCc3ccc(F)cc3)ccc2c1=O	0	0.71	-1.7	-2.4	i	-4	2.5
CCOC(=O)C1=CN(CC)S(=O)(=O)NC1c1ccc2ccccc2c1 (stereo unspecified)	0	0.71	nt	0.7	i	nt	4.1
COC(=O)c1coc(-c2ccc(C)cc2)c1C(=O)OC	-2	0.74	-2.5	4.2	nt	-5	2.2
CC(=O)c1ccc(N=C2NC(=O)C(CO)(CO)S2)cc1	-5	0.67	-1.0	0.1	i	39	0.6
CCN(Cc1ccncc1)C(=O)CCc1ccccc1	2	0.64	-5.5	-10.0	i	-15	3.1
CCc1c(C(=O)N2CCN(c3ccccc3F)CC2)[nH]c(C)c1C(C)=O	-4	0.72	8.6	1.0	nt	-1	0.8
O=C(NCc1cccs1)C1CC(=O)N(c2ccccc2)C1 (stereo unspecified)	-2	0.69	0.5	-2.7	nt	-2	2.6
O=C(CNS(=O)(=O)c1ccc(Cl)cc1)NNC(=O)c1cccnc1	5	0.7	7.2	4.6	i	nt	1.2
O=C(O)CN1CCN(Cc2ccc(F)cc2)C1=O	-4	0.63	7.2	-2.7	i	1	1.9
Cc1ccc(C)c(NC(=O)c2ccccc2O)c1	14	0.71	3.1	0.6	nt	3	2.8

Single records, from the list above.
O=C(NCc1cccs1)C1CC(=O)N(c2ccccc2)C1 (stereo unspecified) as listed: B2AR ag: -2; E coli growth: 0.69; LANA-H2B inh: 0.5; HNF4A DNA FP: -2.7; FGF22 binding: nt; ALR H2O2 inh: -2; UCH37 DUB inh: 2.6
Cc1ccc(C)c(NC(=O)c2ccccc2O)c1 as listed: B2AR ag: 14; E coli growth: 0.71; LANA-H2B inh: 3.1; HNF4A DNA FP: 0.6; FGF22 binding: nt; ALR H2O2 inh: 3; UCH37 DUB inh: 2.8

Already shown: an excerpt of the list.
SMILES	B2AR ag	E coli growth	LANA-H2B inh	HNF4A DNA FP	FGF22 binding	ALR H2O2 inh	UCH37 DUB inh
COc1ccc(CNS(=O)(=O)c2cccc(S(=O)(=O)N3CCOCC3)c2)cc1	9	0.69	-3.4	-1.8	i	-9	0.9
CN(C1CCCCC1)S(=O)(=O)c1cc2c3c(c1)CCN3C(=O)CC2	-1	0.71	-1.0	-0.9	i	1	4.8

High-throughput results from PubChem.
